# Screens: PubChem, National Center for Advancing Translational Sciences (NCATS)
# TRPML1 blocker: inhibitors of human TRPML1 channel; activity change, negative = inhibition, % (no concentration beside the values); actives 0.02% (n = 390,000); TRPML1-inducible cells, Ca2+ dye fluorescence, FDSS; hits give low values; inhibition of EC80 agonist-evoked calcium signal; AID 624415; Q9GZU1; in the data active means activity change below about -50%; inconclusive means about -30% to -50%; inactive means above about -30%;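 also: stimulus is agonist 54-4 at its EC80 concentration; % is scaled to controls: 0 for no effect and ±100 for the full control effect; compound concentration not given in the record; the text of the record puts the active cut at -80%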
# Target sequence (Q9GZU1 whole entry, looked up): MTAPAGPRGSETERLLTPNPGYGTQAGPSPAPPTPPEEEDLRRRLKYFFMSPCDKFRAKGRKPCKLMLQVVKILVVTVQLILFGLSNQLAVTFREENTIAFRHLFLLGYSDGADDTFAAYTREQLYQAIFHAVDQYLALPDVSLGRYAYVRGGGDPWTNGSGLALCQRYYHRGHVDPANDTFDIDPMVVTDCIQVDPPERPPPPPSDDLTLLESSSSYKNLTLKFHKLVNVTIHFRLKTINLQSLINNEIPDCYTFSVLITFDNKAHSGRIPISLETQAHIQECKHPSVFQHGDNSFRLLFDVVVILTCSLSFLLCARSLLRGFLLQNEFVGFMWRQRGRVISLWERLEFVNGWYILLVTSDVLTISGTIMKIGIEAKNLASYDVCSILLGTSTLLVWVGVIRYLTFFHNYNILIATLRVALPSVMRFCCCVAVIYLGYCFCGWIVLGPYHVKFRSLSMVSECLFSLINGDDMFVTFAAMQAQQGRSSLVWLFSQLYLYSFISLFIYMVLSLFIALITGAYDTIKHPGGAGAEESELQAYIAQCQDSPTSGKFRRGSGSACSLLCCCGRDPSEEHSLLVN
#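 Tet-induced TRPML1-DL cells loaded with Ca8 no-wash calcium dye were read kinetically on FDSS. Compound addition was followed by EC80 agonist 54-4 (4 uM final); inhibition was read over 110 s.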
# PINK1 expr mod: modulators of PINK1 expression; PINK1 immunofluorescence, high-content cytometry, 24 h; Potency, µM (series often up to 76.6 µM), inactives show at the highest dose activation (PINK1 increase), actives largely listed as activators; actives 0.2% (n = 410,000); active = well fitted activation curve with a large enough effect; inconclusive = small, poorly fitted or top-dose-only effect; inactive = flat fitted curve, though single readings scatter; cell line not stated here;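 also: potency is read from the fitted curve at half-maximal effect; % of control where 0% means no effect; nearly all actives have a fitted effect of over 65% in size; a mitochondrial uncoupler was the plate control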
#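 Stable cell line treated 24 h with compounds at 5 concentrations (CCCP controls), then fixed and immunostained for PINK1 plus nuclear and cell stains; PINK1 immunofluorescence quantified by laser-scanning microplate cytometry.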
# Menin-MLL FL inh: displaces fluorescein MLL peptide from human menin; 290,000 tested, under 10 active; Fluorescence polarization, fluorescein-MLL peptide displacement from menin; FP activity change, % at 61.4 µM; AID 1766; inconclusive = falling polarisation curve, or a change in total fluorescence; inactive = total fluorescence flat and polarisation flat or rising; no compound was filed as active; the % refers to the polarisation; negative = inhibition;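 also: % of control where 0% means no effect; inhibitors lower the polarisation; unlabelled MLL peptide was the positive control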
# TRPML1 ag: agonists of human TRPML1 channel | TRPML1-expressing cells, Ca2+ dye fluorescence, FDSS; host cell line not named in the record; reference of the full effect not given here | activation, % (concentration not given with the values) | actives 0.12% (n = 410,000) | AID 624414; in the data active = activation above about 50%; inconclusive = about 30% to 50%; inactive = below about 30%; also: 0% is about no effect; the text of the record puts the active cut at 80%
#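 Tetracycline-induced TRPML1-DL cells are seeded and incubated overnight before loading with a no-wash Ca2+ dye and quencher. Agonist activity is taken from the 110 s fluorescence read following compound pin-transfer on an FDSS, before EC80 54-4 challenge.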
# Sfp PPTase inh: inhibitors of Bacillus subtilis Sfp phosphopantetheinyl transferase | Potency, µM, without a hit: max response, negative = inhibition, hits mostly inhibitors | Q9F4F7 | Biochemical Sfp PPTase activity, qHTS | actives 3.5% (n = 310,000); active = well fitted inhibition curve with a large enough effect; inconclusive = small, poorly fitted or top-dose-only effect, or another doubt; inactive = no such curve, though single readings can be large or run the other way;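 also: the enzyme is Sfp with the accession as filed and its product quenches rhodamine fluorescence; potency is read from the fitted curve at half-maximal effect; 0% = enzyme reaction without inhibitor and -100% = no enzyme wells; top concentration of the series not given in the record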
#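 With Hepes-Na pH 7.6 buffer containing 10 mM MgCl2, Sfp (15 nM) modified BHQ-2-YbbR (12.5 uM) using rhodamine-CoA (5 uM). Two reads 30 minutes apart at 525/598 nm yielded each well's rate.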
# TRPV1 potentiator: human TRPV1 potentiation. TRPV1-expressing cells, Fluo-8 calcium influx, capsaicin EC20 potentiation; host cell line not named in the record; control for the full effect not named in the record. potentiation, % at 8.33 µM. Q8NER1. actives 0.02% (n = 320,000). AID 540277; active means potentiation above 80%; inconclusive means 30% to 80%; inactive means below 30%; also: 0% is about no effect
#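 Cells expressing TRPV1 were dye-loaded with Fluo-8 and read kinetically: 10 s baseline, 3 min after compound (agonist portion), then 2 min after EC20 capsaicin (allosteric enhancer portion). Calcium-bound dye fluorescence at 480/520 nm.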
# ClpP mod: qHTS Assay for Activators of ClpP; ATP-dependent Clp protease proteolytic subunit (Bacillus subtilis (strain 168)), P80244; Potency, µM (top dose mostly 57.5 µM), for the others: at the top dose activity change, negative = active; purified B. subtilis ClpP, FRET peptide cleavage, 20 min; actives 1.9% (n = 340,000); active = well fitted falling curve with a large enough effect; inconclusive = small, poorly fitted or top-dose-only effect; inactive = no such curve, though single readings can be large or run the other way; also: potency is read from the fitted curve at half-maximal effect; the source files actives as falling curves though it sought activators and does not explain the sign; nearly all actives have a fitted effect of over 65% in size; many hits overshoot -100%
# Target sequence (P80244 whole entry, looked up): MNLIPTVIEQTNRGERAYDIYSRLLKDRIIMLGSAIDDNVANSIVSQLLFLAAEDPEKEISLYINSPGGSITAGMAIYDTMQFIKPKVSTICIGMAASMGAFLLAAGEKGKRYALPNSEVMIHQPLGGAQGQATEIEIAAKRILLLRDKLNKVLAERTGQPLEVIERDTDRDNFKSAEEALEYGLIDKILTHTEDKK
#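 Purified B. subtilis ClpP, 10 microg/mL final in Tris/HCl pH8 with KCl, BSA, glycerol and Tween-20, cleaved an Abz/nitrotyrosine-quenched decapeptide. Fluorescence (ex 320, em 430) was read at 0 and 20 min at room temperature. Delta was normalized to 5.8 microM ADEP and DMSO/no-enzyme controls.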
# * = called active by the depositor; ? = inconclusive; / = no result given; & = joins results of further samples; [ ] = dose if it differs, or a comment.
# Start of the listing, in advance, 3 compounds:
SMILES,TRPML1 blocker,PINK1 expr mod,Menin-MLL FL inh,TRPML1 ag,Sfp PPTase inh,TRPV1 potentiator,ClpP mod
Cc1ccccc1CS(=O)(=O)Cc1ccc(C(=O)NCc2ccccn2)o1,8.4,-2.4%,-24.2,1.0,2.3%,-0.7,-3.4%
CCN(C(=O)CSc1nc2nc(C)cc(C)n2n1)c1cccc(C)c1,-1.0,4.9%[38.3 µM],2.7,0.1,-17.0%,1.9,-4.2%
CCn1c(SCC(=O)N2CCCc3ccccc32)nnc1-c1ccco1,3.3,-2.4%,2.6,-0.6,-10.8%,20.5,-0.7%

# All compounds of this part, previewed entries included:
SMILES,TRPML1 blocker,PINK1 expr mod,Menin-MLL FL inh,TRPML1 ag,Sfp PPTase inh,TRPV1 potentiator,ClpP mod
Cc1ccccc1CS(=O)(=O)Cc1ccc(C(=O)NCc2ccccn2)o1,8.4,-2.4%,-24.2,1.0,2.3%,-0.7,-3.4%
CCN(C(=O)CSc1nc2nc(C)cc(C)n2n1)c1cccc(C)c1,-1.0,4.9%[38.3 µM],2.7,0.1,-17.0%,1.9,-4.2%
CCn1c(SCC(=O)N2CCCc3ccccc32)nnc1-c1ccco1,3.3,-2.4%,2.6,-0.6,-10.8%,20.5,-0.7%
COc1ccc(CCNC(=O)CN2CCN(Cc3ccccc3F)C2=O)cc1OC,-9.0,-2.0%,0.3,-0.6,20.7%,?,/
CCn1c(=O)c(C(=O)NCc2ccc(OC)c(OC)c2)c(O)c2ccccc21,-5.6,1.1%,-2.9,1.1,-5.3%,2.7,-2.2%
CCOc1ccc(S(=O)(=O)Nc2ccccc2C(=O)N(C)C2CCN(C)CC2)cc1,-11.3,-1.6%,/,0.2,/,1.3,0.2%
CN(C)c1ccc(NC(=O)Cc2ccccc2)c2ccccc12,-26.7,2.6%,3.3,1.0,10.0%,-5.7,/
Cc1ccc(CN(C)C(=O)c2cc(Br)c(Br)s2)o1,-11.1,2.8%,10.7,-0.4,79.4µM*,-4.9,/
O=C(NCc1ccc2c(c1)CCN2C(=O)c1ccncc1)c1ccc(Cl)cc1,7.1,0.4%,/,-0.2,/,/,0.1%
CCC(c1ccccc1)c1nc(-c2ccccn2)no1 (configuration not stated),16.1,-0.5%,4.3,-1.8,10.0%,14.9,-0.4%
CC(=O)c1cccc(NC(=O)NNC(=O)c2ccc(Cl)cc2Cl)c1,-11.1,0.4%,0.4,-1.6,-0.5%,2.6,-0.6%
NC(=O)N/N=C/c1ccc([N+](=O)[O-])o1,16.8,0.4%,-1.9&-2.0,-0.3,-22.8%&-5.1%,5.6,-0.1%
COc1ccccc1NC(=O)NN1CCCCC1,-5.2,0.8%,-0.2,1.0,18.9%,0.2,/
CCOC(=O)c1ccc(NS(=O)(=O)c2ccc(-c3coc(C)n3)cc2)cc1,3.0,11.2%,5.7,-0.5,15.5%,4.5,-0.9%
Cc1nnc(SCc2ccc(F)cc2)s1,6.9,-0.5%,2.7,-0.5,10.2%,6.7,-1.5%
CCOC(=O)N1CCC(N2C(=O)c3ccc(C(=O)NCCC(C)C)cc3C2=O)CC1,-9.5,-1.0%,2.2,1.0,12.3%,-7.7,0.5%
CCOC(=O)c1c(NC(=O)CCCOc2ccc(C)cc2)sc2c1CCC(C)C2 (configuration not stated),8.4,2.0%,/,-0.6,/,/,0.3%
COc1ccc(C(=O)Nc2nc(-c3nnn(-c4ccc(C(C)C)cc4)c3C)ns2)cc1,64.4,6.0%,/,-0.3,/,/,?
Cc1ccc(-c2cn3c(n2)sc2cc(C(=O)NCCCc4ccccc4)ccc23)c(C)c1,5.9,6.9%,/,0.0,/,/,4.9%
COC(=O)c1ccc(CSc2nc(-c3ccccc3)cs2)o1,-19.1,0.8%[38.3 µM],2.5,0.6,-9.1%,-0.3,-0.2%
O=S1(=O)CCC(N2CCOCC2)C1 (configuration not stated),23.9,1.6%,2.2,-0.2,22.4%,0.1,0.4%
CC(C)c1ccc(NC2CCCN(C(=O)c3ccsc3)C2)cc1 (configuration not stated),7.8,0.3%,/,1.5,7.3%,-3.0,1.1%
CC(NCC(=O)Nc1ccccc1C(=O)NC1CC1)c1cccs1 (configuration not stated),6.7,2.1%,/,-0.5,/,/,/
Cc1ccc(-c2cc(C(F)(F)F)n3ncc(-c4ccccc4)c3n2)cc1,-1.0,1.8%,/,-0.5,/,/,-1.2%
COc1ccc(OC)c(S(=O)(=O)N(C)CC(=O)N2CCN(c3ccc(F)cc3)CC2)c1,6.1,0.4%[38.3 µM],-3.9,0.1,-2.6%,5.7,-2.2%
O=c1c2ccccc2nnn1CSc1nnc2sc3ccccc3n12,/,/,-1.0,/,-9.2%,-7.1,/
NC(=O)c1cccc(-c2ccnc3c2CC(C(=O)NCc2ccccc2)O3)c1 (configuration not stated),/,8.8%,/,-0.9,/,/,-7.5%
COc1ccccc1-c1ccc(=O)n(CC(=O)NCC2CCCO2)n1 (configuration not stated),-5.7,-1.1%,-0.1,-0.5,22.5%,3.8,0.8%
Cc1ccc(C(=O)NNC(=O)CCC(=O)Nc2cc(C)on2)cc1,30.2,0.7%,4.7,-0.3,5.2%,-9.5,0.4%
Cc1cccc(C)c1NC(=S)/C(=C(\[O-])c1cccs1)[n+]1ccccc1,-1.2,-0.1%,1.5,-0.1,?,-14.4,1.8%
COc1ccc(N(Cc2cc(=O)[nH]c3ccccc23)C(C)=O)cc1,50.0,0.7%,-1.9,0.2,2.4%,-13.8,/
O=C(c1ccc(Cl)cc1Cl)C1(n2cncn2)Oc2ccccc2C1O (configuration not stated),3.6,-1.2%,0.3,1.4,13.2%,-1.9,-1.8%
Cc1ccc(S(=O)(=O)N(CCC(=O)O)Cc2ccc(Cl)cc2)cc1,-3.2,/,4.5,-0.4,23.4%,-7.7,-6.6%
O=S(=O)(c1cccs1)N1CCN(c2ccccc2F)CC1,12.1,-1.1%,-5.6,1.3,24.7%,-4.1,/
Cc1cc(C(=O)CSc2nnc(C3CC3)n2C2CC2)c(C)n1C(C)C,1.8,-0.1%,/,0.8,/,-1.1,0.5%
O=S(=O)(NCCCCCNS(=O)(=O)c1ccccc1)c1ccccc1,26.8,-2.1%,2.4,-0.4,-18.4%,-1.1,-1.0%
Cc1ccc(-n2cccc2/C=C2\C(=N)N3N=C(c4ccco4)SC3=NC2=O)cc1,13.9,2.1%,10.9,1.8,-28.2%,?,-1.1%
O=C(NCC(F)(F)F)Nc1nnc(C(F)(F)F)s1,-7.7,3.6%,-0.1,-0.3,2.4%,1.6,-1.8%
O=C(CCC1N=C2c3ccccc3N=C(SCc3ccc(Cl)cc3)N2C1=O)NCCc1ccccc1 (configuration not stated),-3.9,-0.9%,/,1.9,/,/,4.9%
C[C@H](CO)N1C[C@H](C)[C@@H](CN(C)C)Oc2c(NC(=O)CCC(F)(F)F)cccc2C1=O,-3.5,0.4%,/,0.1,/,/,-0.1%
O=C(NCCCCNC(=O)c1c(Cl)cccc1Cl)c1c(Cl)cccc1Cl,-4.4,4.0%,/,-0.5,/,/,-16.2%
CCc1ccc(/C=C/c2c[nH]c3ccccc23)[n+](CC)c1,-7.0,31.6µM*,?,0.5,-49.1%,0.7,1.1%
O=C(Nc1ccccc1N1CCOCC1)c1cccs1,-0.5,-1.5%,-1.8,-0.8,6.4%,1.5,-1.5%
COc1ccc(C)cc1-n1c(SCC(=O)Nc2cc(C)on2)nc2ccccc2c1=O,-2.2,-0.5%,-7.9,1.1,10.4%,13.2,0.8%
CC(C)C[C@@H]1NC(=O)[C@H](Cc2ccc(O)cc2)NC(=O)c2cc([N+](=O)[O-])cc(I)c2NCCC[C@@H](C(N)=O)NC1=O,-11.4,2.9%,-0.8,-0.5,-12.4%,6.4,-1.7%
CCOC(=O)/C(=N\Nc1ccccc1Cl)N1CCN(c2ccccc2OC)CC1,57.7,16.1%,3.1,3.5,4.7%,-7.7,-0.5%
N#Cc1ccccc1S(=O)(=O)N1CCN(C(=O)C2CCC2)CC1,-6.8,-4.5%,/,0.3,/,5.5,3.0%
C=CC[C@@H](CC(=O)OC(C)(C)C)C(=O)OC[C@@H]1CCCN1C(=O)[C@@H](CC=C)CC(=O)N[C@@H](CO)Cc1ccccc1,-0.6,2.1%,/,-0.6,/,/,0.5%
CC(=O)OCC(=O)Nc1cc(S(=O)(=O)N2CCCCCC2)ccc1Cl,-15.8,0.2%,2.3,0.7,7.6%,-7.7,-0.1%
Cc1cccc(C)c1NC(=O)CNC(=O)C(Cc1ccccc1)NC(=O)c1ccccc1 (configuration not stated),-5.5,-1.9%,/,-0.4,12.7%,6.9,-7.3%
# Other compounds follow.
SMILES,TRPML1 blocker,PINK1 expr mod,Menin-MLL FL inh,TRPML1 ag,Sfp PPTase inh,TRPV1 potentiator,ClpP mod
Cc1ccc(SC(C)C(=O)O/N=C(\N)c2ccncc2)cc1 (configuration not stated),54.2,3.5%,/,0.8,0.1%,-13.2,-1.6%
COc1ccc(C(=O)NC(=S)N2CCCCC2)cc1[N+](=O)[O-],-13.9,2.0%,1.2,0.2,14.4%,3.8,0.9%
COc1ccc(NC(=O)Cc2cccc3ccccc23)cc1,/,1.2%,-4.1,/,1.2%,10.7,0.8%
Cc1ccc2oc(-c3cccc(NC(=O)c4ccc(N5CCC(C)CC5)c([N+](=O)[O-])c4)c3)nc2c1,12.8,-0.2%,/,0.1,/,/,-7.9%
O=[N+]([O-])c1cc2c(cc1/C=N/n1c(-c3ccccc3)n[nH]c1=S)OCO2,14.7,-1.5%,-1.9,0.8,39.8µM*,?,-1.1%
COCCN(C(=O)CSc1n[nH]c(-c2ccccc2)n1)c1c(N)n(Cc2ccccc2)c(=O)[nH]c1=O,-15.2,1.7%,/,0.0,/,15.6,?
Cn1c(SCC(=O)NCCc2ccccc2)ncc(C(=O)Nc2ccc(F)cc2)c1=O,5.8,5.2%,/,0.6,/,12.9,1.2%
COc1cccc(C2C(C(=O)Nc3ccc(Cl)cc3)=C(C)Nc3nc4ccccc4n32)c1OC (configuration not stated),1.3,1.3%,/,-0.5,/,/,-17.0%
CCOc1ccc(-c2nnn(CC#N)n2)cc1OC,-12.3,1.6%,0.1,-1.0,2.1%,-2.6,0.0%
